Mtb MbtI inh: MbtI salicylate synthase inhibition; P9WFX0; purified MbtI enzyme, fluorescence intensity read-out; inhibition, %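 (about 17 µg/mL by stock and volumes)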; 100,000 tested, 0.89% active; AID 493033;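 active = above 50% in both replicates, above 80% if mildly self-fluorescent; inactive = the rest, strongly fluorescent compounds included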;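 also: 0% = mean of negative and 100% = mean of positive controls; one replicate is shown; some compounds called inactive have numbers as strong as hits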
MenB inh: Mtb MenB enzyme inhibition; P9WNP5; MenB enzyme assay, absorbance read-out; some hits fall short of the stated cut; inhibition, %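 (about 12 µg/mL by stock and volumes)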; 100,000 tested, 0.43% active;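 active = mean of two replicates above 30%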;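 also: 0% = no compound and 100% = wells with inactive enzyme; the first replicate is given; strong numbers were not always called active; inactives centre near -10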
Target sequence (P9WNP5 whole entry, looked up): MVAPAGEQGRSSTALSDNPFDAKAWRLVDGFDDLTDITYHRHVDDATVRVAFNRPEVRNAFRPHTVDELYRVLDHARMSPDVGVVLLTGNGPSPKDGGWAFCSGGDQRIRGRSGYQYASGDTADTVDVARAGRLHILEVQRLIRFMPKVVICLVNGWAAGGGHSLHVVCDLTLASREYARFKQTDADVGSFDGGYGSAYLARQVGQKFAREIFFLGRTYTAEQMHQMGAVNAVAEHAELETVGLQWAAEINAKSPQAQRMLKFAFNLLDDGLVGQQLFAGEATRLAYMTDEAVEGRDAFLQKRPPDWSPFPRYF
Polio RdRp inh: poliovirus RNA polymerase inhibition; P03300; poliovirus polymerase elongation, fluorescence polarization; stronger effect = lower value; % elongation, % (compound at 16.7 µg/mL); 150,000 tested, 0.66% active; in the data active = % elongation below about 90%; also: some results filed as inactive read as strong as hits
Target sequence (P03300 1749-2209 limits assumed): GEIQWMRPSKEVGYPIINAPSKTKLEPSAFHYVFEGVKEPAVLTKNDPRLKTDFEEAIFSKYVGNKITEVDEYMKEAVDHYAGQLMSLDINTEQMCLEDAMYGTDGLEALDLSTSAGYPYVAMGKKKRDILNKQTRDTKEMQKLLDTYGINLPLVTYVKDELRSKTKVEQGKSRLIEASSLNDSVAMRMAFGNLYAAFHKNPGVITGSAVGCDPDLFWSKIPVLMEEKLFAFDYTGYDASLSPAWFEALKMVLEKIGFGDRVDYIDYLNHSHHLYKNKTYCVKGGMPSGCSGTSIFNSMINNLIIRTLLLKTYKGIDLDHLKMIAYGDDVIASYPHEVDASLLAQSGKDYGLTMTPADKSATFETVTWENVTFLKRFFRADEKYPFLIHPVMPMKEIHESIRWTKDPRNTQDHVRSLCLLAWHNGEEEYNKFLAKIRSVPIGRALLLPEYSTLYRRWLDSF
Polio RdRp inh intensity: recorded beside Polio RdRp inh, whose call it bears; % elongation; measured here: total intensity read-out; formula for this scale not given here;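 total fluorescence in place of polarization; lower means less elongation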
Starred values were filed as active, the others as inactive; i = inactive; · = not tested or not shown; & = joins results of further samples.

SMILES	Mtb MbtI inh	MenB inh	Polio RdRp inh	Polio RdRp inh intensity
COc1ccc2c(CN3CC=C(c4ccccc4)CC3)cc(=O)oc2c1	100	1	110	118
CCOC(=O)c1cnn2c1nc(Sc1cccc(OC)c1)c1ccccc12	-9	4	105	105
Cc1cc(I)ccc1NC(=O)Nc1ccccc1	-10	-17	101	103
Cc1cccc(-c2nnc(SCN3C(=O)c4ccccc4C3=O)n2C)c1	-11	5	100	102
Cc1nn(-c2ccc(F)cc2)c(Cl)c1/C=C/C(=O)OCC(=O)Nc1c(C#N)oc2ccccc12	-1	-1	101	108
OCCN1N=C2c3ccccc3CCC2C1c1ccccc1Cl (stereo not drawn)	-10	-15	102	98
CC(C)CCNC(=S)Nc1ccccn1	5	-19	102	104
COc1ccc(-c2cc(CC(C)C)nc(N)c2C#N)cc1	·	-18	100	108
O=C(CSC(=O)c1ccccc1)Nc1ccc(Cl)cn1	·	-3	99	104
COc1cccc(NS(=O)(=O)c2ccc(-n3cccn3)cc2)c1	-21	6	102	105
O=S(=O)(N(c1ccc(Br)cc1)C(F)F)C(F)(F)F	-14	-16	106	104
COc1ccc(NC(=O)c2sc(=S)[nH]c2N)cc1	·	-31	102	102
COC(=O)c1sc(N)c(C(=O)OC)c1COC(=O)CN1CCCCCC1=O	7	-33	106	110
Cc1ccc(S(=O)(=O)N(C)c2nc3ccccc3nc2Cl)cc1	54	-34	94	90
O=C(CSc1ncccn1)N1N=C(c2ccc(Cl)cc2)CC1c1ccco1 (stereo not drawn)	9	-33	100	100
C/C(=N/NC(=O)Cc1cccs1)c1ccc(C)cc1	-16	9	101	102
Cc1c(Cl)cccc1NC(=O)N1CC(C)Sc2ccccc21 (stereo not drawn)	1	4	100	104
O=C(ON1C(=O)c2cccc3cccc(c23)C1=O)c1ccco1	9	-7	100	99
CCc1ccc(NC(=O)C2=CC=CN3CCS(=O)(=O)N=C23)cc1	18	9	99	96
CCCCS(=O)(=O)C1CCS(=O)(=O)C1 (stereo not drawn)	-6	·	104	108
Cn1c(SCc2cc(=O)n3ccsc3n2)nnc1-c1ccco1	24	-20	102	104
CC(C)NC(=O)C(C#N)(Cc1ccc(C#N)cc1)Cc1ccc(C#N)cc1	1	-24	102	101
Cc1cc(SCC(=O)N2CCCC2)n2c(nc3ccccc32)c1C#N	2	-12	99	135
CC(=O)N1CCN(S(=O)(=O)c2cccc(C(=O)OCc3cc(=O)n4cc(Br)ccc4n3)c2)CC1	7	1	106	107
CN(C)c1ccc(C(O)c2nc3ccccc3n2Cc2ccccc2)cc1 (stereo not drawn)	-9	·	102	105
Cc1ccc(NC(=O)Cn2c(=O)oc3cc(S(=O)(=O)N4CCCCCC4)ccc32)cc1F	-6	11	103	103
N#C/C(C(=S)Nc1ccccc1)=C1/NN=C2CCCCCN21	43	-65	98	100
CCCN(Cc1nnc(-c2cccs2)o1)C(=O)C1COc2ccccc2O1 (stereo not drawn)	-2	-10	100	94
CCNC(=O)CSc1nnc(-c2cccc(C)c2)n1-c1ccc(OCC)cc1	3	-11	104	107
CCc1ccccc1NC(=O)Nc1cccs1	7	-19	103	103

Seven records drawn at random from the list so far, as already listed:
SMILES	Mtb MbtI inh	MenB inh	Polio RdRp inh	Polio RdRp inh intensity
Cc1ccc(NC(=O)Cn2c(=O)oc3cc(S(=O)(=O)N4CCCCCC4)ccc32)cc1F	-6	11	103	103
CC(C)NC(=O)C(C#N)(Cc1ccc(C#N)cc1)Cc1ccc(C#N)cc1	1	-24	102	101
N#C/C(C(=S)Nc1ccccc1)=C1/NN=C2CCCCCN21	43	-65	98	100
CCc1ccccc1NC(=O)Nc1cccs1	7	-19	103	103
CCNC(=O)CSc1nnc(-c2cccc(C)c2)n1-c1ccc(OCC)cc1	3	-11	104	107
CCCN(Cc1nnc(-c2cccs2)o1)C(=O)C1COc2ccccc2O1 (stereo not drawn)	-2	-10	100	94
Cn1c(SCc2cc(=O)n3ccsc3n2)nnc1-c1ccco1	24	-20	102	104

Continued:
SMILES	Mtb MbtI inh	MenB inh	Polio RdRp inh	Polio RdRp inh intensity
Cc1cccc2c1cnn2C(=O)Nc1cccc(C(F)(F)F)c1	18	-22	103	98
CCOC(=O)C1=C(CSc2nc3cc(C(=O)OC)ccc3c(=O)n2Cc2ccco2)NC(=O)NC1	5	-5	95	98
Cc1cccc(-c2nc(C#N)c(N(C)C)o2)c1	i	-12	100	102
CC(C(=O)O)N1C(=O)c2cccc3cccc1c23 (stereo not drawn)	6	-37	98	100
CSc1nc(C)cc(NC(N)=O)n1	-4	-24	101	95
COC(=O)c1cc(=O)n(-c2cc(Cl)cc(Cl)c2)[nH]1	0	-120	105	106
Cc1cc2nc3c(=O)n(C)c(=O)n(C)c3nc2cc1NC(=O)C(F)(F)F	14	0	56	158
COC(=O)C1=CN(CCCN2CCCC2=O)C=C(C(=O)OC)C1c1ccccc1C(F)(F)F	115	-12	100	102
Cc1ccc(SCC(=O)OCc2nc3ccccc3c(=O)n2CC#N)cc1	3	-26	101	103
Cc1[nH]c2ccc(-c3nnc(SCc4ccc(F)cc4)o3)cc2c1C	-3	-36	102	100
C1=CCC(CNCCCn2ccnc2)CC1 (stereo not drawn)	-1	10	102	107
COc1ccccc1-c1coc2cc(OC(=O)c3ccco3)ccc2c1=O	-5	-7	105	103
O=C(NCc1ccccc1)N1CCCCC1	-4	9	100	105
CC(C)C(c1ccc(N(C)C)cc1)c1ccc(N(C)C)cc1	3	-7	101	104
COc1ccc(N2Cc3cccc(C(=O)NC(C)CCc4ccco4)c3C2=O)cc1 (stereo not drawn)	28	-1	104	99
Cn1c(N)c(C(=O)CN(Cc2ccccc2)Cc2ccccc2)c(=O)n(C)c1=O	-5	-23	105	108
CCCC(=O)Nc1ccc(C(=O)N2CCc3ccccc32)cc1	-12	-27	99	100
O=C(NCC1COC2(CCCC2)O1)c1ccccc1 (stereo not drawn)	1	-8	106	101
CCn1c(SC)nnc1C1CCN(C(=O)N(c2ccccc2)c2ccccc2)CC1	-2	-23	103	101
O=C(CSC1=NC(=O)C(c2ccccc2)C(=O)N1)Nc1ccc(Cl)cn1 (stereo not drawn)	·	-31	100	101
Cc1ccc(-n2c(C)cc(C(=O)Cn3nc(C)c(C)c(C#N)c3=O)c2C)cc1C	15	-7	101	105
O=C(Oc1ccc2c(c1)OCO2)C1COc2ccccc2O1 (stereo not drawn)	3	13	99	92
N#Cc1ccccc1COC(=O)c1cc[n+]([O-])cc1	0	3	105	110
CCCSc1nc(C)c(-c2csc(C(C#N)=C3CCCC3)n2)cc1C#N	-2	8	105	109
CC(C)NC(=O)c1nc(-c2cccc(C(F)(F)F)c2)no1	-13	-32	101	100
Cc1ccccc1COc1ccc(-c2nn[nH]n2)cc1	·	-7	108	110
C=CCn1cc(F)c(=O)n(CC=C)c1=O	-17	2	102	104
c1cc(CNCCN2CCOCC2)ccn1	·	9	109	107
CC1CCC(=O)C(Sc2nc(C3CC3)cc(-c3cccs3)c2C#N)C1 (stereo not drawn)	21	-5	97	99
Cc1n[nH]c(=O)c(N)c1-c1cc(-c2ccc(Cl)c(Cl)c2)n[nH]1	1	-19	104	106

Some of the entries so far, with each value named:
mol: N#C/C(C(=S)Nc1ccccc1)=C1/NN=C2CCCCCN21
  Mtb MbtI inh = 43; MenB inh = -65; Polio RdRp inh = 98; Polio RdRp inh intensity = 100

mol: CCCN(Cc1nnc(-c2cccs2)o1)C(=O)C1COc2ccccc2O1 (stereo not drawn)
  Mtb MbtI inh = -2; MenB inh = -10; Polio RdRp inh = 100; Polio RdRp inh intensity = 94

mol: CCNC(=O)CSc1nnc(-c2cccc(C)c2)n1-c1ccc(OCC)cc1
  Mtb MbtI inh = 3; MenB inh = -11; Polio RdRp inh = 104; Polio RdRp inh intensity = 107

mol: CCc1ccccc1NC(=O)Nc1cccs1
  Mtb MbtI inh = 7; MenB inh = -19; Polio RdRp inh = 103; Polio RdRp inh intensity = 103

Carrying on:
SMILES	Mtb MbtI inh	MenB inh	Polio RdRp inh	Polio RdRp inh intensity
C/C(Nc1nc(-c2cc(C)n(CCc3ccccc3)c2C)cs1)=C(/C#N)C(N)=O	15	-36	107	108
CC(=O)Nc1cc(C(=O)NCCN(C)C)ccc1Sc1ccc(C)cc1	6	5	102	99
O=C(NC1CCCC1)C(c1ccccn1)N(C(=O)c1ccc2c(c1)OCCO2)c1ccccc1 (stereo not drawn)	-1	19	102	103
COc1oc(-c2ccccc2)nc1C(F)(F)F	5	-16	101	102
COc1cc2c(cc1OC)C(c1cc3cc4c(cc3[nH]c1=O)OCO4)N(C(=O)c1ccco1)CC2 (stereo not drawn)	-3	-2	104	103
Cc1cc(SCC(=O)N2CCCCC2)nc2ccccc12	·	-16	100	107
CCOC(=O)c1cc(-c2ccc3c(c2)OCO3)nn1-c1cccc(C(=O)O)c1	11	-33	107	113
Cc1ccc(C(=O)Cc2cc3ccccc3oc2=O)cc1	-21	-20	103	108
Cc1ccccc1C(=O)NC(=S)Nc1ccc(-c2nc3ccccc3o2)cc1	-14	-17	100	106
CCc1ccc(-c2nn(Cc3ccccc3)cc2C(=O)N2CCN(CCN3CCCC3)CC2)cc1	3	-11	105	108
CCC(=O)N1CCN(c2ccc(NCc3ccccc3)cc2)CC1	·	18	104	110
C=CCN1C(=O)/C(=C/c2ccco2)C(=O)NC1=S	86*	-31	100	99
Cc1cc(C)c2c(n1)sc1c(=O)n(CC(=O)O)cnc12	13	2	103	108
COCCCCCCCCCCCC(=O)O	-9	6	98&98	103&102
O=C(Nc1cccc(Br)c1)c1cccc2c1C(=O)c1ccccc1-2	-7	-14	102	96
CCn1cc(C(=O)c2ccccc2O)cc1-c1nc2cc(Cl)ccc2c(=O)[nH]1	13	-9	98	95
CC1CCCC(C)N1C(=O)COC(=O)c1cc(=O)[nH]c2ccccc12 (stereo not drawn)	-16	8	103	109
N#CCC(=O)NC(=O)NC12CC3CC(CC(C3)C1)C2	1	-37	102	89
Cc1cc(C(=O)CSc2nccn2Cc2ccccc2)c(C)n1-c1ccc(S(N)(=O)=O)cc1	1	-6	109	123
O=C(O)/C=C/C(=O)Nc1ccc(N2CCCCC2)cc1	22	-9	108	109
O=C(O)CCCN1C(=O)C(=O)/C(=C(/O)c2ccccc2)C1/C=C/c1ccccc1 (stereo not drawn)	1	-40	101	101
COC(=O)c1ccc(S(=O)(=O)NCc2cccc(OC)c2)n1C	-7	-21	102	100
COC(=O)CSc1nc2cc3c(cc2cc1C#N)OCO3	-1	-17	100	105
N#Cc1ccc(CN2C(=O)c3ccccc3C2=O)cc1	-2	-6	99	105
Cc1nn(Cc2ccc(F)cc2)c(C)c1NC(=O)c1cnn2c1NC(c1ccco1)CC2C(F)(F)F (stereo not drawn)	-2	-6	102	103
CCCC1CCC(C(=O)n2nc(N)c3cc4ccc(OC)cc4nc32)CC1 (stereo not drawn)	3	-16	100	99
COc1ccc(C2N=C(c3ccccc3C)NO2)cc1O (stereo not drawn)	-24	-34	102	103
CCOC(=O)N1CCC(Nc2cc(C)c(C#N)c3nc4ccccc4n23)CC1	89	-47	103	117
CC(C)CCn1c(CO)cnc1S(=O)(=O)C(C)C	-10	-29	105	102
CCCCSc1ncn[nH]1	17	11	100	98
CCOc1ccc(N=CC2=C(O)CNC2=O)cc1	4	-25	102	104
O=C(C(c1ccccc1)c1ccccc1)N(Cc1ccco1)Cc1cccs1	12	3	100	102
O=C(O)/C=C/C(=O)NNc1nc2cc(S(=O)(=O)N3CCOCC3)ccc2o1	6	0	97	102
CC1CCCC(NC(=O)COC(=O)c2ccc3ccccc3n2)C1C (stereo not drawn)	-10	·	101	122
COC(=O)C(F)(F)Sc1c(C)[nH]c2ccccc12	-9	-11	104	106
O=C(Cn1c2ccccc2c2cn[nH]c(=O)c21)NCc1ccco1	45	0	100	102
CC1CCCCC1N(C)C1CCN(CCNC(=O)/C=C/c2ccccc2)CC1 (stereo not drawn)	5	-18	100	104
CC(=O)Nc1ccc(S(=O)(=O)N2CCCC2C(=O)O)cc1 (stereo not drawn)	·	-11	102	105
O=C(Nc1cccc(Cl)c1)NC1(C(=O)Nc2ccc3c(c2)OCCO3)CCCCC1	-9	-21	103	100
O=C(NCCc1ccc(Cl)cc1)c1ccc2c(Cl)c3c(nc2c1)CCCC3	6	5	96	110
O=C(NCCN1CCN(c2nccc(C(F)(F)F)n2)CC1)NC1CCCCC1	0	-17	106	107
O=c1sc2ccccc2n1CCOc1ccccc1	·	9	98	97
N#CCCCSc1nnc(Cc2ccc3c(c2)OCO3)o1	8	15	99	101
CCC(=O)Oc1cc2c(C)cc(=O)oc2cc1Cl	·	-6	102	110
Cc1cc(C(=O)O)c(CSc2ncn[nH]2)o1	·	-25	93	97
CCOc1ccc(C(=O)N2CC(=O)Nc3ccc(C)cc3C2c2ccccc2)cc1 (stereo not drawn)	-4	-5	102	97
O=C(NCc1cccnc1)C1c2ccccc2C(=O)N1C1CCCCCCC1 (stereo not drawn)	-4	-13	102	99
CC(C)CC(=O)Nc1sc2c(c1C#N)CCCCC2	-3	-7	98	102
O=C1C=CC2(C=C1)CC1(CCCCC1)N=C2SCc1ccccc1	-3	0	100	103
Cc1[nH]c(C(=O)NN)c(C)c1C(=O)NC1CCCCC1	-1	-2	100	103

The listing continues.
SMILES	Mtb MbtI inh	MenB inh	Polio RdRp inh	Polio RdRp inh intensity
OC(CNCC1CCCO1)COC(c1ccc(Cl)cc1)c1ccc(Cl)cc1 (stereo not drawn)	0	·	106	107
CCN(CC)C(=O)CSc1nc2c(c(=O)n(C)c(=O)n2C)n1CC	17	3	101	99
COC(=O)CCn1c(=O)c2cccn2c2ccc(F)cc21	3	-51	104	100
CC(C)=NNC(=O)CN(C1=NS(=O)(=O)c2ccccc21)c1ccccc1	-1	-18	102	102
Cc1cc(C)c(C#N)c(SCc2nc(-c3ccc(OC(F)(F)F)cc3)no2)n1	4	-17	98	95
